From PubChem BioAssay
LASV entry inh: qHTS for Inhibitors of binding or entry into cells for Lassa Virus | Potency, µM (doses to about 37.9 µM), inactives show at the highest dose activity change, negative = inhibition, actives largely listed as inhibitors | Lassa virus pseudotype entry inhibition, cell reporter; control for the full effect not named in the record | hit rate 1.2% among 300,000 | AID 540256, 2011; active means well fitted inhibition curve with a large enough effect; inconclusive means small, poorly fitted or top-dose-only effect, or effect the other way; inactive means flat fitted curve, though single readings scatter; tested in HEK293 cells; further: on the % scale 0 is the no-effect control and ±100 the full control effect; nearly all actives have a fitted effect of over 50% in size; luciferase read-out
SARS PLpro yeast: qHTS of Yeast-based Assay for SARS-CoV PLP; S. cerevisiae expressing SARS-CoV PLpro, growth rescue; control for the full effect not named in the record; Potency, µM (doses to about 32.9 µM), without a hit: at the top dose activity, positive = growth rescue; hit rate 0.19% among 330,000; active means well fitted rising curve with a large enough effect; inconclusive means small, poorly fitted or top-dose-only effect; inactive means no such curve, though single readings can be large or run the other way; further: 0% is about no effect; nearly all actives have a fitted effect of over 55% in size; growth read by luminescence after 48 h
MARV entry inh: qHTS for inhibitors of binding or entry into cells for Marburg Virus; Marburg virus pseudotyped entry inhibition, cell reporter; control for the full effect not named in the record; about a third of the inactives were read at about 46 µM; Potency, µM (top dose mostly 37.8 µM), inactives show at the highest dose activity change, negative = inhibition, usual class: inhibitors; hit rate 1.8% among 300,000; AID 540276, 2011; active = well fitted inhibition curve with a large enough effect; inconclusive = small, poorly fitted or top-dose-only effect, or effect the other way; inactive = flat fitted curve, though single readings scatter; tested in HEK293 cells; about a fifth of its hits are not listed in these tables; further: on the % scale 0 is the no-effect control and ±100 the full control effect; luciferase read-out
Cruzain inh noDet: qHTS Assay for Promiscuous and Specific Inhibitors of Cruzain (without detergent). Cruzipain (Trypanosoma cruzi), P25779. purified cruzain, Z-FR-AMC fluorescence, no detergent. Potency, µM, for the others: max response, negative = inhibition, hits mostly inhibitors. hit rate 2.3% among 200,000. AID 1476, 2009;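 further: plate controls were enzyme without inhibitor for no effect and buffer without enzyme for full effect; nearly all actives have a fitted effect of over 40% in size; top concentration of the series not given in the record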
Target sequence (P25779 123-467 limits assumed): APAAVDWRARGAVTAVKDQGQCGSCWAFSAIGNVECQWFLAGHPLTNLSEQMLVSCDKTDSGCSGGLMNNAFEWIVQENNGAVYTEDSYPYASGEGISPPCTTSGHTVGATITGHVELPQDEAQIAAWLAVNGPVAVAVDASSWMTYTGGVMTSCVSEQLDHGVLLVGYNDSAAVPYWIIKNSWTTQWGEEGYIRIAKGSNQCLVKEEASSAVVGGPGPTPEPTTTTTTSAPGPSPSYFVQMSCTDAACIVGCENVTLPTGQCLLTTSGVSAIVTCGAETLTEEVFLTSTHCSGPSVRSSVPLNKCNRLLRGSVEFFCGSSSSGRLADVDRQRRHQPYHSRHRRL
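Detergent-free condition (0.00005% Triton X-100) in acetate buffer pH 5.5 with DTT. 1.5 nM enzyme and compound were pre-mixed 15 min, then 2 uM Z-FR-AMC substrate added; reaction progress from fluorescence change between first and third reads (60 s).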
RE007 growth inh: qHTS Assay for Inhibitors of the HIV-1 protein Vpr | Potency, µM (titrated, usually from 92.2 µM), without a hit: at the top dose activity change, negative = less growth | hit rate 0.21% among 360,000 | S. pombe RE007 Vpr strain, BacTiter-Glo ATP luminescence, 24 h; control for the full effect not named in the record; active = well fitted falling curve with a large enough effect; inconclusive = small, poorly fitted or top-dose-only effect; inactive = no such curve, though single readings can be large or run the other way;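 further: on the % scale 0 is the no-effect control and ±100 the full control effect; nearly all actives have a fitted effect of over 50% in size; the assay follows cell death caused by Vpr and the record does not say whether a fall means rescue or toxicity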
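Fission yeast strain RE007, carrying one chromosomally integrated HIV-1 vpr copy, was seeded at OD 0.01 in PMG+AL medium with 23 nL pinned compound. After 24 h at 30 °C and 99% humidity, viability was read by BacTiter-Glo luminescence.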
Cruzain Triton: qHTS Assay for Promiscuous and Specific Inhibitors of Cruzain (with detergent). Cruzipain (Trypanosoma cruzi), P25779. purified cruzain, Z-FR-AMC fluorescence, 0.01% Triton. Potency, µM, inactives show max response, negative = inhibition, most hits filed as inhibitors. hit rate 0.43% among 200,000;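 further: plate controls were neutral wells for no effect and buffer without enzyme for full effect; nearly all actives have a fitted effect of over 40% in size; top concentration of the series not given in the record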
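Steps: dispense cruzain (1.5 nM final) in acetate buffer pH 5.5 with DTT and 0.01% Triton X-100; pin-transfer compounds; incubate 15 min RT; add Z-FR-AMC (2 uM final); read fluorescence every 30 s, using the 60 s intensity change.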
NS1 function inh: qHTS Assay for Inhibitors of Influenza NS1 Protein Function | hit rate 0.4% among 270,000 | Potency, µM (top dose mostly 46.1 µM), for inactives: at the highest dose activity, positive = more growth | S. cerevisiae slowed by influenza A NS1, growth recovery by OD600; active means well fitted rising curve with a large enough effect; inconclusive means small, poorly fitted or top-dose-only effect; inactive means no such curve, though single readings can be large or run the other way; further: nearly all actives have a fitted effect of over 50% in size
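A cell-based growth assay was used: compounds that relieve NS1-induced slow growth of budding yeast raise OD600. Assay medium was yeast nitrogen base with ammonium sulphate and -URA supplement, pH 6.0, with 2% galactose.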
2A StopGo: High Throughput Screening for Foot and Mouth Disease Virus Antivirals; human cells with a luciferase reporter of 2A StopGo recoding; control for the full effect not named in the record; hit rate 1.2% among 410,000; Potency, µM (series often up to 57.9 µM), for inactives: top-dose signal change, negative = less light; active = well fitted falling curve with a large enough effect; inconclusive = small, poorly fitted or top-dose-only effect; inactive = no such curve, though single readings can be large or run the other way; tested in HEK293T cells; further: on the % scale 0 is the no-effect control and ±100 the full control effect; nearly all actives have a fitted effect of over 45% in size; luciferase light after 4 h
Starred values were filed as active, the others as inactive; ? = inconclusive; · = no result given; & = joins results of further samples; [ ] = dose if it differs, or a comment. Unless noted, the call rests on the fitted dose curve; in most records, active means well fitted curve in the direction sought with a large enough effect; inconclusive means small, poorly fitted or top-dose-only effect, or another doubt; inactive means no such curve, though single readings can be large; an effect the other way counts as inactive or inconclusive. Potency means the concentration at half of the fitted maximal effect.

| SMILES | LASV entry inh | SARS PLpro yeast | MARV entry inh | Cruzain inh noDet | RE007 growth inh | Cruzain Triton | NS1 function inh | 2A StopGo |
| --- | --- | --- | --- | --- | --- | --- | --- | --- |
| CC(C)N(C(=O)COc1ccc(Br)cc1Cl)C(C)C | -1% | 1% | -25% | -10% | 7% | -2.0% | -51% | ? |
| CCSP1(=S)N=C(N2CCOCC2)C(C#N)=C2CCCN21 (stereo not given) | 12% | 13% | 3% | -3% | 8% | -0.7% | 0% | -12% |
| CCCCOC(=O)C1=C(C)Nc2ncnn2C1c1ccc(OC)c(OC)c1OC (stereo not given) | -6% | 4% | -36% | ? | -10% | -1.6% | -5% | 0% |
| COc1ccc(-n2ncc3c2CC(C)(C)CC3NC(=O)CCc2c(C)nn(C)c2C)cc1 (stereo not given) | -10%[46.1 µM] | 2% | 0%[46.1 µM] | · | 4% | · | 2% | -10% |
| C#CCOCCOCCOCCNc1nc(N2CCN(C(=O)[C@H]([C@@H](C)CC)n3cc([C@@H](N)Cc4ccc(O)cc4)nn3)CC2)nc(N2CCN(C(=O)[C@H](CCCCN)n3cc([C@@H](N)C(C)CC)nn3)CC2)n1 (stereo not given in full) | · | -2% | · | · | 2% | · | 1% | -7% |
| CC(C)Oc1ccc(C(CC(=O)NCCCN(C)C)c2ccc(F)cc2)cc1 (stereo not given) | ? | 16% | ? | 7% | -3% | 1.8% | -6% | -22% |
| CCOC(=O)CCSCC(=O)N1N=C(c2cccs2)CC1c1ccc(C)cc1 (stereo not given) | -13% | -14% | 5% | 8% | 4% | -9.5% | -40% | 0% |
| CC(=O)c1ccc(N2C(=O)[C@@H]3[C@H](C2=O)[C@H]2c4ccccc4C=NN2[C@@H]3C(C)=O)cc1 | ? | -1% | 3% | · | 2% | · | 2% | 14% |
| O=C(NCc1ccccc1)C1CCN(S(=O)(=O)Cc2ccccc2)CC1 | 11%[46.1 µM] | · | -2%[46.1 µM] | -13% | · | 1.6% | · | -2% |
| Cc1ccccc1-n1c(SCC(=O)Nc2ccc3c(c2)OCO3)nnc1-c1ccccn1 | -14% | -6% | ? | 16% | 6% | -6.0% | 5% | -7% |
| COc1nc(Nc2ccccc2F)nc(OC)n1 | 29%[46.1 µM] | 2% | ? | · | 3% | · | -5% | 27% |
| O=C(CN1C(=O)NC2(CCCCC2)C1=O)NCc1cccs1 | -2% | 12% | 7% | -10% | 0% | -3.8% | -1% | 8% |
| CCC(CC)C(=O)Nc1ccc2nc(SCC(=O)N3CCCC3)sc2c1 | -3%[46.1 µM] | · | 11%[46.1 µM] | -8% | · | -0.9% | · | -16% |
| CCCOc1c(OC)cccc1C1CC(=O)Nc2cc(OC)c(OC)c(OC)c21 (stereo not given) | -12% | 1% | ? | 19% | -2% | -4.1% | -6% | 23% |
| CC1(C)CC(=O)C2=C(C1)N(c1ccccc1)C(N)=C(C#N)C2c1cccnc1 (stereo not given) | -9% | -9% | -1% | -5% | -2% | 0.1% | -8% | -20% |
| O=C1CCCCCC1C1(O)C(=O)Nc2ccccc21 (stereo not given) | 0% | -5% | 13% | ? | -6% | -0.8% | -1% | -5% |
| Cc1ccc(C2=NN3C(C2)c2ccccc2OC32C(=O)Nc3ccccc32)cc1 (stereo not given) | -18% | -22% | -27% | -4% | -29% | -14% | -4% | 38%[activator] |
| O=C(O)CCSC1CC(=O)N(c2ccccc2)C1=O (stereo not given) | 6%[46.1 µM] | -4% | 10%[46.1 µM] | · | -7% | · | -1% | -10% |
| COc1ccccc1OCc1nnc(SCC(=O)NCc2ccco2)n1-c1ccccc1 | 0% | 26% | 5% | 15% | -5% | 2.9% | 23% | 8% |
| COc1ccccc1OCC(=O)NC1CC(=O)N(c2ccc3c(c2)OCCO3)C1 (stereo not given) | 1%[46.1 µM] | · | · | -4% | · | -0.7% | · | 9% |
| Cc1cccn2c(=O)c3cc(C(=O)NCCc4ccccc4)c(=N)n(Cc4ccco4)c3nc12 | ? | 1% | ? | · | -7% | · | 18% | -5% |
| COc1ccccc1-c1nc2n(n1)C(c1ccccc1Cl)C(C(N)=O)=C(C)N2 (stereo not given) | · | -5% | · | -7% | -2% | 3.3% | 0% | -20% |
| O=C(Nc1nc(-c2ccc(-c3ccccc3)cc2)cs1)c1cc([N+](=O)[O-])ccc1N1CCOCC1 | · | 0% | · | · | -13% | · | 11% | 11% |
| CCCCC(=O)NC(N1CCCCC1)C(Cl)(Cl)Cl (stereo not given) | 2% | 16% | 30% | -7% | 7% | 7.0% | 2% | -11% |
| COc1cccc(C(=O)COC(=O)C2CC(=O)N(c3ccc(Oc4ccccc4OC)cc3)C2)c1 (stereo not given) | · | 0% | · | · | -4% | · | 7% | -5% |
| CCc1ccc(NC(=O)CN2CCN(Cc3ccccc3)S2(=O)=O)cc1 | 12%[46.1 µM] | · | · | -2% | · | -6.0% | · | 19% |
| Cc1ccc(C(=O)NCC(=O)Nc2ccc3c(c2)OCCO3)cc1 | 15% | 2% | 2% | · | 16% | · | · | 24% |
| Cc1ccccc1Nc1c(-c2ccncc2)nc2ccc(Cl)cn12 | 19%[46.1 µM] | -9% | ? | -3% | -18% | -12% | -3% | ? |
| C#CCn1c(S(=O)(=O)Cc2ccc(F)cc2)nc(-c2ccccc2)c1-c1ccccc1 | 3.7µM* | -10% | 0.92µM* | ? | -4% | -6.8% | 26% | ? |
| O=C(NCc1ccco1)c1cc(S(=O)(=O)N2CCCc3ccccc32)ccc1Cl | ? | -8% | ? | 6% | 8% | -1.1% | -5% | -3% |

4 entries from above in another layout:
Fields – LASV entry inh, SARS PLpro yeast, MARV entry inh, Cruzain inh noDet, RE007 growth inh, Cruzain Triton, NS1 function inh, 2A StopGo
Cc1ccc(C(=O)NCC(=O)Nc2ccc3c(c2)OCCO3)cc1
 : 15%, 2%, 2%, ·, 16%, ·, ·, 24%
Cc1ccccc1Nc1c(-c2ccncc2)nc2ccc(Cl)cn12
 : 19%[46.1 µM], -9%, ?, -3%, -18%, -12%, -3%, ?
C#CCn1c(S(=O)(=O)Cc2ccc(F)cc2)nc(-c2ccccc2)c1-c1ccccc1
 : 3.7µM*, -10%, 0.92µM*, ?, -4%, -6.8%, 26%, ?
O=C(NCc1ccco1)c1cc(S(=O)(=O)N2CCCc3ccccc32)ccc1Cl
 : ?, -8%, ?, 6%, 8%, -1.1%, -5%, -3%

Later entries:
| SMILES | LASV entry inh | SARS PLpro yeast | MARV entry inh | Cruzain inh noDet | RE007 growth inh | Cruzain Triton | NS1 function inh | 2A StopGo |
| --- | --- | --- | --- | --- | --- | --- | --- | --- |
| CCOc1ccc(NC(=O)C(C)Sc2nnc(C)n2C)cc1 (stereo not given) | · | 4% | · | -8% | 6% | 3.1% | -6% | 5% |
| COc1ccc(C)cc1N(C(=O)c1ccco1)C(C(=O)NC1CCCC1)c1ccc(N2CCOCC2)cc1 (stereo not given) | · | -1% | ? | · | 9% | · | -1% | 11% |
| CCOCCCN1C(=O)CN(C2CCCCC2)C(=O)C1c1ccc(OC)c(OC)c1 (stereo not given) | 27% | -1% | 0% | -1% | 3% | -1.7% | -3% | -13% |
| CCSCCNC(=O)c1cc(-n2cnnc2)ccc1Cl | 10% | -5% | 18% | 10% | -9% | 3.8% | -4% | -17% |
| Cc1cc(C(=O)COC(=O)c2ccc(O)cc2O)c(C)n1-c1ccc(OC(F)F)cc1 | ? | -4% | 7.9µM* | · | 4% | · | · | ? |
| Cc1cc(=O)[nH]c(SCC(=O)Nc2nonc2C)n1 | ? | 1% | -8%[46.1 µM] | · | -2% | · | -1% | 3% |
| Nc1cc(=O)[nH]c(SCC(=O)N2N=C(c3ccc4ccccc4c3)CC2c2ccccc2)n1 (stereo not given) | ? | 2% | ? | · | 11% | · | -12% | -19% |
| CC1(C)NC(=O)N(CC(=O)OCC(=O)Nc2cc(S(=O)(=O)N3CCCCC3)ccc2Cl)C1=O | -4% | 0% | -16% | 11% | -19% | 0.6% | -1% | -13% |
| COc1ccc(-c2csc(NC3=NCCCCC3)n2)cc1 | ? | 5% | ? | -9% | -9% | -7.5% | 6% | 2% |
| COc1ccc(C(=O)n2ncc(C#N)c2N)cc1 | 2% | 0% | 18%[46.1 µM] | · | -8% | · | · | 29% |
| CC(=O)Nc1ccc(S(=O)(=O)Nc2nnc(C3CCCCC3)s2)cc1 | 1% | -3% | 6%[46.1 µM] | 4% | 9% | -6.8% | 13% | 5% |
| Cc1nc(-c2ccc(Cl)cc2)sc1C1(C)CC(c2ccc(OC(F)(F)F)cc2)=NO1 (stereo not given) | · | 5% | · | · | -14% | · | 4% | 22% |
| CC(C)CC(=O)Nc1ccccc1N1CCCC1 | -2% | 27% | 4%&4% | -3% | -5% | -0.2% | 1% | -23% |
| Clc1ccc(C(c2ccccc2)c2ncc[nH]2)cc1 (stereo not given) | 1% | 4% | -9% | 0% | 19% | 1.3% | -26% | -10% |
| COc1ccc(CN(C)C(=O)c2ccc(NS(=O)(=O)c3ccc4[nH]c(=O)[nH]c4c3)cc2)c(OC)c1 | 13%[46.1 µM] | -5% | 12%[46.1 µM] | · | -2% | · | 9% | -4% |
| CCN(CC)CCCC(C)NC1=NCCCCC1 (stereo not given) | 5% | 4% | 5% | 6% | 4% | 5.3% | 1% | -17% |
| Cc1cc(NC(=O)c2ccc3c(c2)OCCO3)ccc1NC(=O)c1ccco1 | ? | -1% | ? | · | -10% | · | -9% | 2% |
| Cc1ccc(C(=O)OCc2cn3ccccc3n2)cc1 | 10% | -8% | -14% | ? | ? | 0.7% | -6% | 27% |
| O=C(Nc1ccccc1)c1ccc(NC(=O)c2cccs2)cc1 | 18%[46.1 µM] | ? | -17%[46.1 µM] | · | 10% | · | -8% | 23% |
